Screening data: PubChem BioAssay, National Center for Advancing Translational Sciences (NCATS)
Cruzain Triton – qHTS Assay for Promiscuous and Specific Inhibitors of Cruzain (with detergent). Cruzipain (Trypanosoma cruzi), P25779. purified cruzain, Z-FR-AMC fluorescence, 0.01% Triton. Potency, µM, for inactives: max response, negative = inhibition, actives largely listed as inhibitors. 0.43% of 200,000 active; active means well fitted curve in the direction sought with a large enough effect; inconclusive means small, poorly fitted or top-dose-only effect, or another doubt; inactive means no such curve, though single readings can be large; an effect the other way counts as inactive or inconclusive;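 further: plate controls were neutral wells for no effect and buffer without enzyme for full effect; nearly all actives have a fitted effect of over 40% in size; top concentration of the series not given in the record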
Target sequence (P25779 123-467 limits assumed): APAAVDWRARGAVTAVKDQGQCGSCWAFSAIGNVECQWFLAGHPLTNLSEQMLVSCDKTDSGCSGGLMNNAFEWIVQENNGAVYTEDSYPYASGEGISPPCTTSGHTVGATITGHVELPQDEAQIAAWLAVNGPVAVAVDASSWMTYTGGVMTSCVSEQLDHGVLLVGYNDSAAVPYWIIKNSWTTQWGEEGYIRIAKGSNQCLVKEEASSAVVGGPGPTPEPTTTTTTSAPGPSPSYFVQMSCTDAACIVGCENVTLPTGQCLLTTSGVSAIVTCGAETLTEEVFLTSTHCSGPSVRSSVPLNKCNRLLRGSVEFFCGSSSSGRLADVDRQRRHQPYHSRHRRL
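Detergent-containing arm of a paired screen for aggregation-based inhibition: 0.01% Triton X-100 present. Cruzain at 1.5 nM cleaved 2 uM Z-FR-AMC at pH 5.5 with 5 mM DTT; AMC fluorescence gain over 60 s measured activity.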
NS1 inh – qHTS Assay for Inhibitors of Influenza NS1 Protein Function. S. cerevisiae slowed by influenza A NS1, growth recovery by OD600. Potency, µM (series often up to 46.1 µM), for inactives: at the highest dose activity, positive = more growth. 0.4% of 270,000 active; further: actives are rising curves; nearly all actives have a fitted effect of over 50% in size
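A cell-based growth assay was used: compounds that relieve NS1-induced slow growth of budding yeast raise OD600. Assay medium was yeast nitrogen base with ammonium sulphate and -URA supplement, pH 6.0, with 2% galactose.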
MARV entry inh – qHTS for inhibitors of binding or entry into cells for Marburg Virus; 1.8% of 300,000 active; Marburg virus pseudotyped entry inhibition, cell reporter; control for the full effect not named in the record; about a third of the inactives were read at about 46 µM; Potency, µM (doses to about 37.8 µM), inactives show at the highest dose activity change, negative = inhibition, hits mostly inhibitors; active = well fitted inhibition curve with a large enough effect; inconclusive = small, poorly fitted or top-dose-only effect, or effect the other way; inactive = flat fitted curve, though single readings scatter; tested in HEK293 cells; about a fifth of its hits are not listed in these tables; further: on the % scale 0 is the no-effect control and ±100 the full control effect; luciferase read-out
RE007 growth inh – qHTS Assay for Inhibitors of the HIV-1 protein Vpr. S. pombe RE007 Vpr strain, BacTiter-Glo ATP luminescence, 24 h; control for the full effect not named in the record. Potency, µM (highest dose often 92.2 µM), inactives show at the highest dose activity change, negative = less growth. 0.21% of 360,000 active. AID 651644, 2012; active = well fitted falling curve with a large enough effect; inconclusive = small, poorly fitted or top-dose-only effect; inactive = no such curve, though single readings can be large or run the other way;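 further: on the % scale 0 is the no-effect control and ±100 the full control effect; nearly all actives have a fitted effect of over 50% in size; the assay follows cell death caused by Vpr and the record does not say whether a fall means rescue or toxicity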
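Fission yeast strain RE007, carrying one chromosomally integrated HIV-1 vpr copy, was seeded at OD 0.01 in PMG+AL medium with 23 nL pinned compound. After 24 h at 30 °C and 99% humidity, viability was read by BacTiter-Glo luminescence.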
Cruzain noTriton – qHTS Assay for Promiscuous and Specific Inhibitors of Cruzain (without detergent) | 2.3% of 200,000 active | Cruzipain (Trypanosoma cruzi), P25779 | Potency, µM, without a hit: max response, negative = inhibition, usual class: inhibitors | purified cruzain, Z-FR-AMC fluorescence, no detergent | AID 1476, 2009; active means well fitted curve in the direction sought with a large enough effect; inconclusive means small, poorly fitted or top-dose-only effect, or another doubt; inactive means no such curve, though single readings can be large; an effect the other way counts as inactive or inconclusive;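 further: plate controls were enzyme without inhibitor for no effect and buffer without enzyme for full effect; nearly all actives have a fitted effect of over 40% in size; top concentration of the series not given in the record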
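Purified cruzain at 1.5 nM, pre-incubated 15 min with compound at room temperature in 100 mM sodium acetate pH 5.5, 5 mM DTT, 0.00005% Triton X-100. Reaction started with 2 uM Z-FR-AMC; AMC fluorescence increase over 60 s gives rate.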
LASV entry inh – qHTS for Inhibitors of binding or entry into cells for Lassa Virus; Lassa virus pseudotype entry inhibition, cell reporter; control for the full effect not named in the record; Potency, µM (series often up to 37.9 µM), inactives show at the highest dose activity change, negative = inhibition, hits mostly inhibitors; 1.2% of 300,000 active; AID 540256, 2011; active means well fitted inhibition curve with a large enough effect; inconclusive means small, poorly fitted or top-dose-only effect, or effect the other way; inactive means flat fitted curve, though single readings scatter; tested in HEK293 cells; further: on the % scale 0 is the no-effect control and ±100 the full control effect; nearly all actives have a fitted effect of over 50% in size; luciferase read-out
SARS PLpro yeast – qHTS of Yeast-based Assay for SARS-CoV PLP | S. cerevisiae expressing SARS-CoV PLpro, growth rescue; control for the full effect not named in the record | Potency, µM (titrated, usually from 32.9 µM), without a hit: at the top dose activity, positive = growth rescue | 0.19% of 330,000 active | AID 485353, 2010; further: 0% is about no effect; nearly all actives have a fitted effect of over 55% in size; growth read by luminescence after 48 h
StopGo reporter – High Throughput Screening for Foot and Mouth Disease Virus Antivirals; human cells with a luciferase reporter of 2A StopGo recoding; control for the full effect not named in the record; Potency, µM (top dose mostly 57.9 µM), inactives show top-dose signal change, negative = less light; 1.2% of 410,000 active; AID 1159524, 2015; active = well fitted falling curve with a large enough effect; inconclusive = small, poorly fitted or top-dose-only effect; inactive = no such curve, though single readings can be large or run the other way; tested in HEK293T cells; further: on the % scale 0 is the no-effect control and ±100 the full control effect; nearly all actives have a fitted effect of over 45% in size; luciferase light after 4 h
* hit, by the source's call; ? = inconclusive; . = no result given; & = joins results of further samples; [ ] = remark or other dose. Unless noted, the call rests on the fitted dose curve; in most records, active means well fitted rising curve with a large enough effect; inconclusive means small, poorly fitted or top-dose-only effect; inactive means no such curve, though single readings can be large or run the other way. Potency means the concentration at half of the fitted maximal effect. This is a random part of the collection, and some 4.7% of all compounds hit somewhere here.

SMILES | Cruzain Triton | NS1 inh | MARV entry inh | RE007 growth inh | Cruzain noTriton | LASV entry inh | SARS PLpro yeast | StopGo reporter
COc1ccc(CC(=O)N/N=C/c2cc([N+](=O)[O-])cc(Br)c2O)cc1 | . | 5% | . | 0% | . | . | -3% | -14%
CC(C)n1cc(/C=N/NC(=O)COc2cccc3cccnc23)c2ccccc21 | -5.3% | 11% | 10µM* | -17% | ? | ? | 10% | ?
COCCNC(=O)c1ccc(CS(=O)(=O)c2cccc(C(F)(F)F)c2)o1 | . | 4% | 21%[46.1 µM] | -5% | . | -11%[46.1 µM] | -2% | -7%
Cc1ccc(OCC(=O)Nc2ccc(N3CCN(C(=O)c4ccco4)CC3)cc2)cc1 | . | 2% | ? | -14% | . | -1%[46.1 µM] | -2% | ?
COc1cc2cc(CN(CCCN3CCOCC3)C(=O)Nc3ccccc3F)c(=O)[nH]c2cc1OC | . | -1% | ? | -9% | . | 8% | 1% | -6%
COc1cccc(CNC(=O)C2CCCN(c3nnc(-n4c(C)ccc4C)s3)C2)c1 (stereo not given) | -6.4% | . | -9%[46.1 µM] | . | -1% | -7%[46.1 µM] | . | -17%
CCOC(=O)c1ccccc1NC(=O)CN1CCCN(Cc2cc(C)ccc2C)S1(=O)=O | -1.7% | . | . | . | 10% | -2%[46.1 µM] | . | -28%
Cc1ccc(C(=O)OCC(=O)NCC(F)(F)F)cc1C | -3.1% | 7% | -2% | -6% | 6% | 2% | 2% | -8%
Cc1cc(C(=O)NNC(=O)c2c(-c3c(Cl)cccc3Cl)noc2C)no1 | . | 6% | 27% | 2% | . | 7% | 6% | -8%
Cc1cc(C)c(C(=O)Cn2nc(C)c([N+](=O)[O-])c2C)cc1C | . | . | ? | 3% | . | -27% | 0% | -16%
COC(=O)Nc1ccc(S(=O)(=O)N2CCCCC2)cc1 | -5.9% | 3% | 5% | -1% | 0% | 11% | 1% | -20%
O=C(C/C=N/OCc1ccc(Cl)cc1Cl)c1ccc(Cl)cc1 | -0.5% | -9% | -1% | 4% | -16% | -3% | -19% | 14%
COc1ccccc1OCCNC(=O)CCNC(=O)c1ccccc1Cl | . | ? | . | -2% | . | . | 7% | 1%
O=C(Nc1cccc(C(=O)Nc2cccc(Br)c2)c1)c1ccccc1 | . | -1% | . | -4% | . | . | -1% | 0%
c1ccc(Oc2ccc(-c3ccn[nH]3)cc2)cc1 | . | -59% | ? | 11% | . | 1% | -6% | 62%[activator]
O=C(/C=C/c1ccc(Cl)cc1)Nc1cc(S(=O)(=O)N2CCOCC2)ccc1N1CCOCC1 | . | . | ? | 11% | . | 4.5µM* | 7% | -16%
O=[N+]([O-])c1ccc(-n2nncc2-c2ccccc2)cc1 | . | -5% | . | 1% | . | . | 3% | -3%
CCCN(CCC)C(=O)Cn1c(=O)n(-c2cccc(C)c2)c(=O)c2c1c1cc(OC)ccc1n2C | -4.6% | . | -15%[46.1 µM] | . | ? | -15%[46.1 µM] | . | 0%
CCc1nnc(NC(=O)CSc2nc(C3CCCCC3)nc3ccccc23)s1 | -3.8% | 6% | -2% | 13% | -4% | 5% | 1% | .
O=C(O)c1cc(N=Nc2c(O)[nH]c3ccc([N+](=O)[O-])cc23)ccc1Cl | . | 6% | . | 0% | . | . | 0% | 10%
CCOc1cc(C(=O)OCC(=O)N(C)c2ccccc2)cc(OCC)c1OCC | . | -3% | 7%[46.1 µM] | 7% | . | . | -2% | -9%
COc1ccccc1CCNCc1ccc(OC)c(OCc2ccccc2)c1 | 6.2% | -17% | ? | -17% | 0% | ? | -4% | ?
CCN=C1SC(C(=O)Nc2cc(Cl)cc(Cl)c2)CC(=O)N1CC (stereo not given) | . | 1% | -1%[46.1 µM] | 2% | . | 27% | 0% | -2%
CC(=O)c1cccc(NC(=O)C(Cc2ccccc2)NS(=O)(=O)c2ccc(Br)s2)c1 (stereo not given) | -0.4% | . | -2%[46.1 µM] | . | 20% | 3%[46.1 µM] | . | 5%
COC(=O)c1ccc(CSc2nnc(N)s2)o1 | . | -4% | 3% | 13% | . | 19% | 1% | 6%
SMILES | Cruzain Triton | NS1 inh | MARV entry inh | RE007 growth inh | Cruzain noTriton | LASV entry inh | SARS PLpro yeast | StopGo reporter
CC(C)CCNC(=O)N1CCN(S(=O)(=O)c2ccc3c(ccn3C)c2)CC1 | -3.8% | . | . | . | 3% | 10%[46.1 µM] | . | -14%
Cc1cc(C)nc(NC(=NCCc2c[nH]c3ccccc23)NC(=O)Nc2cccc([N+](=O)[O-])c2)n1 | -3.2% | 11% | -6% | 26% | 10µM* | 0% | -12% | -16%
COc1cc2cc(CN(CCc3cccc(C)c3)C(=S)NCCCN3CCOCC3)c(=O)[nH]c2cc1OC | . | -4% | 10µM* | 8% | . | ? | -2% | -11%
Cc1cccc(Cc2cnc(NC(=O)C3Cc4ccc(C)cc4C(=O)O3)s2)c1 (stereo not given) | -0.8% | . | 0%[46.1 µM] | . | 12% | -1%[46.1 µM] | . | -15%
Cc1ccsc1-c1ccnc(-n2cccc2)n1 | -0.7% | ? | 32% | -17% | 6% | 13% | -2% | 34%[activator]
N/C(=N\OC(=O)c1cccc2ccccc12)c1ccc(Br)cc1 | 0.5% | -21% | ? | -9% | ? | -2% | -47% | 0%
O=C(Nc1ccc(S(=O)(=O)N2CCCc3ccccc32)cc1)C1CCCO1 (stereo not given) | -3.1% | -47% | -3% | 9% | 3% | -17% | -7% | ?
O=C(NNc1ccc(F)cc1F)c1c(F)cccc1Cl | . | -3% | -9%[46.1 µM] | 40% | . | -9%[46.1 µM] | 0% | -2%
Cc1ccc(S(=O)(=O)N2CCN(C(=O)CSc3ccc(F)cc3)CC2)cc1 | . | -4% | ? | 3% | . | -2%[46.1 µM] | 11% | -11%
CSCc1cc(N(C)C)nc(SCc2ccc(Cl)cc2Cl)n1 | -8.2% | -64% | -13% | 11% | 10% | -7% | -21% | -12%
Cc1cc(NC(=O)CN2C(=O)NC(CCc3ccccc3)C2=O)no1 (stereo not given) | . | . | 1%[46.1 µM] | 3% | . | 17%[46.1 µM] | 1% | 11%
CCN=C1SC(CC(=O)Nc2ccc(C)cc2)C(=O)N1CC (stereo not given) | 0.1% | -11% | 0%[46.1 µM] | -5% | 2% | 4% | 2% | -28%
COc1cc2ccccc2cc1C(=O)Nc1cc(-c2nc3ccccc3o2)ccc1C | 1.4% | . | . | . | 0% | -8%[46.1 µM] | . | -9%
CC1Cc2cc(/C(O)=C3/C(=O)C(=O)N(CCN4CCOCC4)C3c3ccc(N(C)C)cc3)ccc2O1 (stereo not given) | . | -4% | . | 0% | . | . | 10% | -10%
CN(C(=O)c1cccnc1)c1nnc(-c2cnccn2)s1 | 2.1% | 4% | 0% | 22% | -9% | 6% | 0% | 11%
CC(=O)Nc1ccc(NC(=O)c2cc[n+]([O-])cc2)cc1 | . | 13% | 13%[46.1 µM] | -14% | . | 9%[46.1 µM] | 3% | 6%
Cc1ccc(CNc2nc3ccccc3n3cnnc23)cc1 | 0.1%&1.6% | -10% | 6%[46.1 µM] | 2% | 1%&-5% | . | 0% | 20%&5%
Cc1ncsc1C(=O)N1CCCC(C(=O)c2ccc3ccccc3c2)C1 (stereo not given) | . | -19% | ? | -7% | . | -12% | 1% | 28µM*
CCC(=O)c1ccc(N2CCOCC2)c(F)c1 | . | . | 16% | -2% | . | 22% | . | 29%
Cc1cc(C)n2nc(C(=O)NCc3ccccc3)cc2n1 | -1.6% | -13% | -12% | 6% | -5% | -19% | 2% | 0%
O=C(c1ccc(F)cc1)N1CCN=C1c1ccccc1 | 2.5% | -2% | 6% | 35% | 8% | 12% | -6% | -3%
C=C(C)c1cccc(C(C)(C)NC(=O)Nc2nnc(C(C)C)s2)c1 | . | 2% | . | -1% | . | . | 0% | ?
CC(C)c1ccccc1NC(=O)CN(c1ccccc1)S(=O)(=O)N(C)C | -2.2% | . | -7%[46.1 µM] | . | 11% | -6%[46.1 µM] | . | -12%
CSc1nnc(C(C)(C)C)c(=O)n1/N=C/c1ccc(C(C)C)cc1 | . | -1% | -5%[46.1 µM] | 8% | . | -7%[46.1 µM] | -1% | 7%
O=C(COc1ccc([N+](=O)[O-])cc1)Nc1ccc(C(=O)NCc2cccnc2)cc1 | -5.8% | 15% | -10% | 5%[3.69 µM] | -3% | -3% | -5% | 7%
SMILES | Cruzain Triton | NS1 inh | MARV entry inh | RE007 growth inh | Cruzain noTriton | LASV entry inh | SARS PLpro yeast | StopGo reporter
C1=CC2CC1CC2CN1CCN(Cc2ccccc2)CC1 (stereo not given) | -2.2% | -6% | -18% | 6% | -1% | ? | -6% | 0%
N/C(Cc1cccc2ccccc12)=N\OC(=O)c1ccccc1F | . | -18% | 28% | 13% | . | 13% | 0% | 7%
CC(C)c1ccc2occ(-c3nn[nH]n3)c(=O)c2c1 | -5.2% | -43% | ? | 16% | 4% | 7% | -27% | -16%
CCOc1cccc(/C=C(/C#N)c2nc3ccccc3[nH]2)c1OCC(=O)O | . | 10% | . | 8% | . | . | 5% | -12%
CCCCN1C(=O)/C(=C/C=C2\N(C)c3ccccc3C2(C)C)SC1=S | -2.1% | 3% | -1% | . | 32µM* | . | -6% | .
CCN(CC(=O)NC1CCCCC1)S(=O)(=O)c1ccc(Cl)cc1 | -0.1% | -10% | -20% | 8% | 11% | -5% | 4% | 0%
COC(=O)[C@@H](NC(=O)c1ccc(OC2CCN(Cc3ccccn3)CC2)cc1)C(C)C | . | 6% | . | 10% | . | . | 0% | 1%
CCOc1ccc(/C=C2/SC(=S)N(n3c(C)ccc3C)C2=O)cc1 | -6.4% | 5% | ? | 3% | -41% | -14% | -16% | ?
CCN(CC)CCNC(=O)c1cn(CC)c2ccc(S(=O)(=O)N3CCc4ccccc4C3)cc2c1=O | -1.2% | -3% | ? | -6% | -1% | 18%[46.1 µM] | -4% | -10%&-11%
CC(=O)Nc1c(S(=O)(=O)c2ccccc2)c2nc3ccccc3nc2n1Cc1ccccc1 | -3.4% | 4% | -7% | -10% | 29% | -25% | 1% | 21%
Cc1ccc(CN(C(=O)COc2ccc(Cl)cc2Cl)C2CCS(=O)(=O)C2)o1 (stereo not given) | -8.9% | . | -5%[46.1 µM] | . | ? | -29%[46.1 µM] | . | -8%
N#Cc1c(NC(=O)CS(=O)(=O)c2ccc(Cl)cc2)sc2c1CCCCC2 | -0.7% | . | . | . | -10% | -19%[46.1 µM] | . | -15%
